Rango release inh: inhibitors of RanGTP-induced Rango-importin beta complex dissociation; O95149+P62826; Biochemical FRET Rango-importin beta, RanGTP-induced dissociation; Potency, µM (doses to about 46.1 µM), without a hit: top-dose activity change, negative = inhibition; 340,000 compounds, 0.071% hits; AID 540253; active means falling FRET ratio curve, often poorly fitted, with flat reads before Ran was added; inconclusive means other falling curves, or compound fluorescence or quenching; inactive means flat or rising ratio curve;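 note: potency is the fitted concentration of half-maximal effect; % of control where 0% means no effect; nearly all actives have a fitted effect of over 45% in size; -100% = wells without RanGTP and RCC1; the record marks most hits as doubtful in a second field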
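Recombinant Rango FRET biosensor (EYFP–snurportin 1 IBB–cerulean CFP10) at 0.1 uM premixed with 0.25 uM importin beta in PBS, 1 mM DTT, 0.02% Tween-20, 0.1% BSA. Compound added 5 min; RanGTP-RCC1 (0.6 uM Ran, 2 mM GTP, 0.2 uM RCC1) then triggers release, read at 45 min.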
Rango-impB inh: inhibitors of Rango-importin beta complex formation | Q14974 | Rango CFP/YFP FRET sensor + importin beta, 45 min | Potency, µM (highest dose often 92.2 µM), inactives show at the top dose inhibition of complex formation | 340,000 compounds, 0.031% hits; active = rising FRET ratio curve, often small or poorly fitted; inconclusive = mostly compound fluorescence or quenching in the first reads; inactive = flat curves in all reads;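 note: potency is the fitted concentration of half-maximal effect; 0% = DMSO wells and 100% = buffer wells lacking importin beta; nearly all actives have a fitted effect of over 15% in size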
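FRET biosensor Rango (snurportin 1 IBB between N-terminal EYFP and C-terminal Cerulean), 50 nM in PBS/1 mM DTT/0.02% Tween-20/0.1% BSA, preincubated 5 min RT with compound; 0.125 microM importin beta added, 45 min RT, CFP/YFP FRET ratio read.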
miR-21 FLuc: miR-21 reporter, rising signal; 340,000 tested, under 10 active; Potency, µM (series often up to 38.3 µM), without a hit: top-dose reporter change, positive = more light; HeLa miR-21 FLuc reporter, luciferase, 48 h; active = well fitted rising curve with a large enough effect; inconclusive = small, poorly fitted or top-dose-only effect; inactive = no such curve, though single readings can be large or run the other way;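 note: % of control where 0% means no effect; miR-21 action dims this reporter so a rising signal means less miR-21 action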
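HeLa cells stably expressing CMV-driven firefly luciferase with a downstream miR-21 binding sequence, endogenously expressing miR-21, were treated with titrations (up to about 40uM final) for 48 hours at 37 degree Celsius. Luciferase luminescence was read after lysis.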
GLA inh pH 4.5: alpha-galactosidase A (human) inhibition, pH 4.5 | purified enzyme, 4-MU-alpha-Gal fluorescence, pH 4.5 | P06280 | activity change, negative = inhibition, % at 105 µM | 230,000 tested, under 10 active | AID 1467; inconclusive = small, poorly fitted or top-dose-only inhibition, or a rising curve; inactive = flat fitted curve, though single readings scatter; no compound was filed as active;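 note: 0% = full activity with enzyme and -100% = basal without enzyme; dose as in the result columns while the protocol names 77 µM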
Target sequence (P06280 whole entry, looked up): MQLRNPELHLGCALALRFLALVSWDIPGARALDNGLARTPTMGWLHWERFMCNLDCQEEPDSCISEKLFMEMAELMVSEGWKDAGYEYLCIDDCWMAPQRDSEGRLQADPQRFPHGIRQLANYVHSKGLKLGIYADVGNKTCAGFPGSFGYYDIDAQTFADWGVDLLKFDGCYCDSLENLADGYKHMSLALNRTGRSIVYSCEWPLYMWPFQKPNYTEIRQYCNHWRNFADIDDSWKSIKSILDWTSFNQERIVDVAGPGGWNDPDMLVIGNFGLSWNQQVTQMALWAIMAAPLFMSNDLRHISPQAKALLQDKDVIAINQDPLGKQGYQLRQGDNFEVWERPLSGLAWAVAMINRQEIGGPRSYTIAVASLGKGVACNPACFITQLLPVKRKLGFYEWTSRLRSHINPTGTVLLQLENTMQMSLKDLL
An asterisk follows results filed as active; ? = inconclusive; . = no result given; [ ] = remark or other dose. Not all compounds are listed, so the mix of outcomes need not match the whole.

nr	Compound	Rango release inh	Rango-impB inh	miR-21 FLuc	GLA inh pH 4.5
1	Cc1nc2c3ccccc3n(CC#N)c(=O)n2n1	?	-5.1%	0%	0
2	Cc1ccc(NC(=O)CNc2ccc(Cl)cc2F)cc1	23%	-0.6%	-9%	-2
3	CCc1ccc(N(C(=O)C(F)(F)F)C(C(=O)NC2CCCCC2)c2ccncc2)cc1 (stereo not given)	19%	2.3%	-4%	2
4	NCCc1nc(-c2ccccc2)cs1	2%	4.6%	-11%	9
5	CCn1nnnc1SCC(=O)c1ccc(C)cc1	1%	-0.3%	-40%	1
6	Cc1cc(=O)[nH]c(N/N=C/c2ccc(Br)s2)n1	15%	0.2%	-47%	-11
7	COc1ccc(C(=O)Cn2cnc3ccccc3c2=O)cc1OC	-14%	0.4%	-3%	.
8	CCN(C1CCCCC1)S(=O)(=O)CCNC(=O)c1ccccc1	0%	-2.7%	.	.
9	CCCCCCNS(=O)(=O)c1nc2nc(C)cc(C)n2n1	1%	3.1%	-3%	7
10	COc1ccc(Br)cc1C(=O)Nc1ccc(N2CCN(S(C)(=O)=O)CC2)cc1	13%	-2.7%	2%	-3
11	CCn1c(SCC(=O)Nc2ccc(OC)cc2)nnc1-c1ccco1	4%	-3.1%	-4%	-15
12	COc1ccc(C)cc1NC(=O)CSCc1cc(=O)n2c(C)csc2n1	-6%	0.8%	.	.
13	Cc1ccc(/C=C2\SC(=S)N(CCCC(=O)Nc3ccccn3)C2=O)cc1	7%	0.8%	?	-2
14	CCOC(=O)Cc1csc(NC(=O)C(C)(C)C)n1	1%	0.1%	-33%	-24
15	Cc1cc(C)nc(SCc2nnc(SCC(=O)NCc3ccco3)n2-c2ccccc2)n1	-9%	1.0%	-4%	5
16	FC(F)(F)c1nc(-c2ccccc2)ncc1-c1nnnn1-c1ccccc1	6%	3.7%	25%	-9
17	O=c1[nH]c(CSc2ccccn2)nc2ccccc12	12%	-0.1%	-33%	0
18	O=C1CC(C(=O)Nc2ccc(Cl)cc2[N+](=O)[O-])C2(CCCCC2)O1 (stereo not given)	-9%	-0.3%	0%	-9
19	Cc1nc(N2CCC(C)CC2)c2c(C)c(C(=O)O)sc2n1	-1%	0.6%	0%	11
20	CCOC(=O)c1c(NC(=O)C2C3C=CC(C3)C2C(=O)O)sc2c1CCCC2 (stereo not given)	4%	-2.3%	10%	12
21	Cc1cccc(Nc2ncnc3onc(-c4ccc(F)cc4)c23)c1C	-5%	2.2%	-25%	.
22	O=[N+]([O-])c1cccnc1Sc1ccc(F)cc1	-7%	-1.9%	.	.
23	COC(=O)c1ccccc1NC(=O)NC1CC1	3%	2.7%	-2%	0
24	COc1cc(-c2cc(C(=O)Nc3ccccc3N3CCOCC3)c3ccccc3n2)cc(OC)c1OC	-1%	-2.1%	26%	0
25	CN(C)C=NC(=O)c1cccn1-c1ncc(C(F)(F)F)cc1Cl	16%	-3.5%	-3%	7
26	CC(C)C[C@H](NC(=O)OC(C)(C)C)C(=O)N1CCC(C(=O)O)CC1	-10%	1.9%	0%	-9
27	COc1cccc2cc(C(=O)NCCc3ccccc3)oc12	-3%	-0.9%	15%	.
28	O=C(CCCc1ccccc1)N1CCN(c2ccc([N+](=O)[O-])cc2)CC1	15%	4.8%	4%	5
29	C/C(=N\Nc1ccc([N+](=O)[O-])cc1[N+](=O)[O-])c1cccnc1	0%	-1.8%	3%	.
30	CC(C)c1cc(C(=O)N/N=C/c2ccoc2)c(O)c(C(C)C)c1	-3%	-3.1%	8%	.
31	CC1CCCCN1C(=O)c1cc2nc(-c3ccccc3)cc(-c3ccccc3)n2n1 (stereo not given)	-25%	?	-7%	-15
32	COC(=O)c1ccc(C)c(NC(=O)c2ccc(Cn3cc([N+](=O)[O-])cn3)o2)c1	9%	-4.6%	3%	-3
33	COc1ccc(/C=C\C(=O)NCc2ccc3c(c2)cc(C)n3C)cc1OC	?	?	-3%	0
34	O=C(Oc1ccc(-c2nnco2)cc1)C1CCN(C(=O)c2ccc(F)cc2)CC1	-2%	?	1%	.
35	CCn1c(-c2ccc(C(C)(C)C)cc2)n[nH]c1=S	-4%	0.0%	-9%	-6
36	NC(=O)c1ccc(-n2nnnc2SCc2ccc(F)cc2)cc1	-4%	3.6%	-15%	1
37	COC(=O)c1ccc(-n2c(C)cc(/C=N/Nc3nc(C)cc(=O)[nH]3)c2C)cc1	-14%	1.8%	-2%	-12
38	CC(C)(C)C(=O)C(Cc1ccccc1Cl)n1cncn1 (stereo not given)	-1%	0.4%	3%	0
39	COc1cc2c(cc1NC(=O)Nc1cccc(C)c1)oc1ccccc12	15%	-2.2%	-8%	4
40	CCn1c(=O)cc(OCC(=O)N2CCCCCC2)c2ccccc21	4%	-1.0%	-5%	-14
41	COCC(=O)N(C)C[C@H]1N[C@@](Cc2ccccc2)(C(=O)OC)[C@H]2C(=O)N(C)C(=O)[C@@H]12	-2%	-1.9%	.	.
42	Cc1ccc(NC(=S)N2CCC(c3ccc(C)cc3)C2)cc1 (stereo not given)	2%	0.6%	-41%	-14
43	O=C(Nc1cccc(C(=O)N2CCCCC2)c1)C1CCC1	12%	-0.4%	.	.
44	COC(=O)[C@@H]1CCCN1Cc1c(C(=O)N2CCOCC2)nc2c(C)cccn12	5%	-0.1%	1%	10
45	CCOc1cccc(C2/C(=C(/O)c3ccc4c(c3)CC(C)O4)C(=O)C(=O)N2CCN2CCOCC2)c1 (stereo not given)	3%	?	-3%	.
46	COc1cccc2cc(C(=O)OC3CCN(C)CC3)c(=O)oc12	11%	-0.1%	-17%	-7
47	COC(=O)c1cc(S(=O)(=O)NCC2CCN(Cc3ccc(Cl)cc3)CC2)cn1C	-3%	1.3%	6%	.
48	COCCNC(=O)Cn1cc(C(=O)c2ccco2)c2ccccc21	6%	3.3%	-2%	0
49	CC(C)[C@H]1COCCS(=O)(=O)N1Cc1ccccc1-c1ccc(F)cc1	4%	-3.6%	.	.
50	O=C(NC1CCCCC1)c1ccc(S(=O)(=O)c2ccccc2)cc1	1%	-2.6%	-19%	-5
51	CC(=O)N/N=C(/c1ccccc1)C(O)c1ccccc1 (stereo not given)	-9%	-3.0%	0%	.
52	CCCc1cc(=O)n2[nH]c(C)cc2n1	-2%	-0.2%	-11%	5
53	CSc1ccccc1NC(=O)c1ccoc1C	-17%	1.3%	-9%	-1
54	Cc1ccc(CCNC(=O)C2CCCN(S(=O)(=O)c3c(C)noc3C)C2)cc1 (stereo not given)	8%	1.7%	0%	1
55	CC(NC(=O)c1cc(COc2cccc(C(F)(F)F)c2)on1)c1nccs1 (stereo not given)	-3%	2.0%	-38%	.
56	O=C(c1cc(N2C(=O)C3C4CCC(C4)C3C2=O)ccc1Cl)N1CCN(c2ccc(F)cc2)CC1 (stereo not given)	-2%	-4.3%	7%	0
57	CC(=O)N[C@H]1C(O)O[C@H](CO)[C@@H](O)[C@@H]1O (stereo not given in full)	2%	-0.1%	.	.
58	O=C(CNC(=O)c1ccco1)OCN1C(=O)c2ccccc2C1=O	4%	0.2%	-8%	2
59	COc1ccccc1C(=O)C1CCCN(Cc2ccc3c(c2)OCCO3)C1 (stereo not given)	3%	-1.3%	3%	-8
60	COc1ccc2c(ccc[n+]2CC(=O)c2ccc(C)cc2)c1	2%	-5.4%	20%	.

Part of the list above in order of SMILES length, descending:
nr	Compound	Rango release inh	Rango-impB inh	miR-21 FLuc	GLA inh pH 4.5
56	O=C(c1cc(N2C(=O)C3C4CCC(C4)C3C2=O)ccc1Cl)N1CCN(c2ccc(F)cc2)CC1 (stereo not given)	-2%	-4.3%	7%	0
30	CC(C)c1cc(C(=O)N/N=C/c2ccoc2)c(O)c(C(C)C)c1	-3%	-3.1%	8%	.
46	COc1cccc2cc(C(=O)OC3CCN(C)CC3)c(=O)oc12	11%	-0.1%	-17%	-7

Other records:
nr	Compound	Rango release inh	Rango-impB inh	miR-21 FLuc	GLA inh pH 4.5
61	O=C(Cc1c[nH]c2ccccc12)NCc1ccc(Cl)cc1Cl	-1%	2.5%	-38%	-4
62	COC(=O)CNc1nc(C2CC2)nc2c1nnn2Cc1ccccc1Cl	4%	?	0%	1
63	Cc1ccccc1N1CCN(C2CCCN(C(=O)c3noc4c3CCCC4)C2)CC1 (stereo not given)	-13%	6.3%	18%	.
64	O=C(Cn1c(=S)nc2ccccn21)N1CCc2ccccc2C1	5%	4.3%	-37%	0
65	CN(CC(=O)Nc1ccc(Cl)cc1)C(=O)c1cc(-c2cccs2)nn1-c1ccccc1	-13%	2.4%	.	.
66	Cc1cc(C)n(CCCN2CCC(C(=O)Nc3cccc(-c4cccc(F)c4)c3)CC2)n1	4%	-3.7%	22%	.
67	CCOC(=O)Cc1nc2nc(C)cc(C)n2n1	0%	-1.1%	-1%	-3
68	Cc1ccc(C)c(Cn2c(O)c(N=NC(=S)Nc3ccccc3F)c3ccccc32)c1	9%	0.0%	-3%	-3[21.1 µM]
69	CN(C(=O)CSc1nc(N)c2c3c(sc2n1)CSC(C)(C)C3)c1ccccc1	-1%	0.3%	-3%	-12
70	COc1ccc(-n2c(C)nnc2SCC(=O)Nc2ccccc2F)cc1	1%	-2.2%	-7%	.
71	COc1ccc(N=C2NC(=O)C(CC(=O)NCCc3ccc(OC)c(OC)c3)S2)cc1 (stereo not given)	-5%	-0.9%	0%	2
72	Clc1ccccc1OCc1nc(-c2ccncc2)no1	3%	-3.3%	-51%	-12
73	CC(=O)CSc1nnc(-c2ccc(S(=O)(=O)N3CCCC3)cc2)n1C	1%	-0.1%	0%	.
74	COc1cccc(NC(=O)Cc2c(O)c3ccccc3[nH]c2=O)c1	0%	1.7%	-27%	2
75	NC(=S)NNc1ccnc2cc(Cl)ccc12	-16%	0.0%	-5%	-27
76	Cc1cccc(N2CCN(Cc3ccc(Br)o3)CC2)c1C	-3%	1.0%	7%	.
77	COCC1=C(C(=O)OC)C(c2ccco2)n2ncnc2N1 (stereo not given)	3%	-4.0%	-4%	-2
78	CC(OC(=O)c1cccs1)C(=O)NCCc1ccccc1 (stereo not given)	-1%	?	-2%	.
79	CC1CCN(C(=O)CCc2nc3cc(S(=O)(=O)N(C)C)ccc3n2C)CC1	-3%	0.6%	0%	-1
80	CCCCn1c(N)c(N(CCOC)C(=O)c2cccc(S(=O)(=O)N(C)c3ccccc3)c2)c(=O)[nH]c1=O	1%	-0.8%	.	.
81	CCc1ccccc1NC(=O)CCCN1C(=O)c2cccnc2C1=O	18%	-0.3%	0%	.
82	O=C(CCNC(=O)c1ccc(Br)cc1)NNC(=O)c1ccccc1O	20%	-1.5%	.	.
83	COc1cc(C(=O)OCCN2CCOCC2)ccc1O	2%	2.8%	-9%	-18
84	OC1(c2cccc(C(F)(F)F)c2)CCN(Cc2nnnn2Cc2ccccc2)CC1	-12%	-1.3%	-4%	-9
85	CCOc1ccc2c(c1)nc(C)n2C	-17%	0.3%	1%	-2
86	COCC1CCN(Cc2cn[nH]c2-c2ccc(OC)c(F)c2)C1 (stereo not given)	10%	5.9%	0%	-7
87	O=C(NN1CCOCC1)c1cc(-c2ccc(Br)cc2)nc2ccccc12	10%	1.4%	-2%	1
88	CCC(=O)Nc1ccc(Br)cn1	-8%	-1.7%	0%	8
89	CCC(CO)Oc1cc(NCc2ccc(C(=O)O)cc2)c2ncn(C(C)C)c2c1 (stereo not given)	7%	4.9%	.	.
90	NC(=O)c1ccc(NC(=O)CCCN2C(=O)NC3(CCCC3)C2=O)cc1	-7%	-1.8%	.	.
91	O=C(CN(Cc1ccc(Br)cc1)S(=O)(=O)c1ccccc1)NCc1cccnc1	12%	?	6%	.
92	Cc1cc(C)cc(NC(=O)C2C3C=CC4(O3)C2C(=O)N(CCCN(C)C)C4C(=O)NC2CCCC(C)C2C)c1 (stereo not given)	3%	-2.9%	2%	.
93	Cc1ccccc1OCCCC(=O)Nc1ccccc1C(F)(F)F	8%	-0.9%	0%	-6
94	COc1ccc(-c2noc(CN(C(=O)c3c(-c4ccccc4Cl)noc3C)C(C)C)n2)cc1	-1%	0.7%	15%	-8
95	CCOC(=O)c1c(S(=O)(=O)Nc2ccccn2)c(C)n(C)c1C	0%	-1.5%	-2%	.

Screens (PubChem BioAssay)
